Compound activity: PubChem, Fisher Drug Discovery Resource Center
NPYLR7 ag: agonists of mosquito NPYLR7 receptor, primary screen, cell-based, Aedes aegypti, calcium fluorescence, mosquito biting behavior. HEK293T NPYLR7/Galpha15, GCaMP6s calcium fluorescence. activation, % at 10 µM. 270,000 compounds, 0.15% hits; in the data active = activation above about 40%;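 note: 0% = vehicle and 100% = reference agonist at the receptor; some compounds past the cut are filed as inactive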
NPYLR7 ag max-min: also measured in NPYLR7 ag; calls as there; activation, %; measured here: Max-Min RFU normalised activation; some inactives read as strong as hits;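 span of the calcium signal over five minutes; 0% = vehicle and 100% = native peptide agonist; compound fluorescence can raise it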
* = called active by the depositor. Only part of the results is shown (hit frequency here may not be typical).

Cc1ccc(-n2cccc2C(=S)N=P(N(C)C)(N(C)C)N(C)C)cc1 was read as NPYLR7 ag -5 and NPYLR7 ag max-min -9.
C=CCn1c(=S)[nH]c2cc(C(=O)Nc3cc(OC)c(OC)c(OC)c3)ccc2c1=O was read as NPYLR7 ag -1 and NPYLR7 ag max-min 19.
`CCc1nc2c(OCc3cc(Cl)cc(Cl)c3)cccn2c1N(C)C(=O)C1CC1` gave NPYLR7 ag 4 and NPYLR7 ag max-min 1.
Screening COC(=O)CCCC(=O)N1CCCC(N(C)Cc2ccccc2)C1 (stereo not given) returned NPYLR7 ag 6 and NPYLR7 ag max-min 5.
`Cc1ccccc1-n1c(Cc2ccccc2)nnc1SCc1ccc(C(=O)Nc2ccc3c(c2)OCO3)cc1` gave NPYLR7 ag -2 and NPYLR7 ag max-min 7.
COCc1cc(N2CCCC2)nc(SCc2ccc(C(=O)NCC3CCCO3)cc2)n1 (stereo not given) was read as NPYLR7 ag -7 and NPYLR7 ag max-min 4.
Screening CN(C(N)=O)c1ccc(OCC#Cc2ccc(Cl)cc2)cc1 returned NPYLR7 ag -6 and NPYLR7 ag max-min -7.
`COc1ccc(CCN(C(=O)c2ccc(Br)cc2)C(C)c2nc3ccccc3c(=O)n2-c2cc(C)ccc2OC)cc1OC` (stereo not given) gave NPYLR7 ag -2 and NPYLR7 ag max-min 7.
For CCSc1nc(-c2ccc(OC)cc2)c(C#N)c(=O)n1CC the results were NPYLR7 ag -1 and NPYLR7 ag max-min -2.
For COc1ccc(CN2CCc3[nH]cnc3C2C(C)C)cc1O (stereo not given) the results were NPYLR7 ag 27 and NPYLR7 ag max-min 17.
O=C(Nc1ccc(-n2cnnn2)cc1)C1CCCC1 was read as NPYLR7 ag -4 and NPYLR7 ag max-min -8.
For Cc1cc(NC(=O)NC2CC(=O)N(c3ccc(Cl)cc3)C2)no1 (stereo not given) the results were NPYLR7 ag 2 and NPYLR7 ag max-min -1.
O=C1c2ccccc2C(=O)N1CN(C(=O)c1ccccc1)c1ccc(Br)cc1 was read as NPYLR7 ag -5 and NPYLR7 ag max-min -8.
For COC(=O)c1cccc(OCC(O)CN(C)Cc2ccc(C(F)(F)F)cc2)c1 (stereo not given) the results were NPYLR7 ag -2 and NPYLR7 ag max-min -4.
Cc1ccc(S(=O)(=O)NNC(=O)CC23CC4CC(CC(C4)C2)C3)cc1 was read as NPYLR7 ag -4 and NPYLR7 ag max-min -7.

Next part; the last 2 above are carried over.
For COC(=O)c1cccc(OCC(O)CN(C)Cc2ccc(C(F)(F)F)cc2)c1 (stereo not given) the results were NPYLR7 ag -2 and NPYLR7 ag max-min -4.
Cc1ccc(S(=O)(=O)NNC(=O)CC23CC4CC(CC(C4)C2)C3)cc1 was read as NPYLR7 ag -4 and NPYLR7 ag max-min -7.
Screening Cc1c(NS(=O)(=O)N(C)C)c(=O)n(-c2ccccc2)n1C returned NPYLR7 ag 5 and NPYLR7 ag max-min 6.
Screening Cc1nn(C)c(Cl)c1CN(C)Cc1cc(C(C)(C)C)n[nH]1 returned NPYLR7 ag 3 and NPYLR7 ag max-min 3.
`O=C(CSc1ccccc1)NC1CCCN(CCc2ccccc2)C1` (stereo not given) gave NPYLR7 ag 3 and NPYLR7 ag max-min 1.
For O=C(NCCN1CCOCC1)c1cccc(Nc2c(Oc3cccc(Cl)c3)cnn(-c3cccc(Cl)c3)c2=O)c1 the results were NPYLR7 ag 5 and NPYLR7 ag max-min 7.
`Cc1cn2c3c(=O)n(Cc4ccc(F)cc4)c(=O)n(C)c3nc2n1CCCN(C)C` gave NPYLR7 ag -1 and NPYLR7 ag max-min -1.
For O=C(Nc1ncn[nH]1)C1CSCCS1 (stereo not given) the results were NPYLR7 ag 12 and NPYLR7 ag max-min 9.
For O=C(Cc1cccs1)Nc1ccccc1N1CCCC1=O the results were NPYLR7 ag -7 and NPYLR7 ag max-min -7.
COc1ccc(-n2ccnc2CN2CCCC2c2c(C)noc2C)cc1 (stereo not given) was read as NPYLR7 ag 3 and NPYLR7 ag max-min 2.
For Cn1c(=O)c2c(ncn2CC(=O)NCC(c2ccco2)N2CCCC2)n(C)c1=O (stereo not given) the results were NPYLR7 ag -7 and NPYLR7 ag max-min -7.
Screening O=C(Nc1ccccc1Cl)NC(Cc1ccccc1)C(O)C(F)F (stereo not given) returned NPYLR7 ag -3 and NPYLR7 ag max-min 2.
Cc1nn(C(=O)CCCn2cc([N+](=O)[O-])cn2)c(C)c1Cl was read as NPYLR7 ag -4 and NPYLR7 ag max-min -5.
For Cc1cc(N2CCN(c3ccccc3)CC2)n2nc(C)c(-c3ccccc3)c2n1 the results were NPYLR7 ag 1 and NPYLR7 ag max-min -1.
For Cc1cccc(-c2[nH]n(-c3ccccc3)c(=O)c2-c2ccc(N)cc2)c1 the results were NPYLR7 ag 19 and NPYLR7 ag max-min 15.
COc1ccc(C(=O)N2CCSC23C(=O)N(Cc2ccc(F)cc2)c2ccc(Cl)cc23)cc1 (stereo not given) was read as NPYLR7 ag 5 and NPYLR7 ag max-min 13.
Screening Cc1cc(Cl)ccc1OCC(=O)N=Nc1c(O)[nH]c2ccccc12 returned NPYLR7 ag -5 and NPYLR7 ag max-min -10.
`COc1cccc2c1C(=O)c1ccccc1C2=O` gave NPYLR7 ag -4 and NPYLR7 ag max-min -9.
For COc1ccc(CNc2nnc(SCC(=O)N(C(C)C)C(C)C)s2)cc1 the results were NPYLR7 ag 10 and NPYLR7 ag max-min 11.
For COc1ccc(OCc2nc(CSc3ccc(C)c(C)c3)cs2)cc1 the results were NPYLR7 ag 6 and NPYLR7 ag max-min 10.
Screening COc1ccc(Cc2noc(CN(C)Cc3ccc(-n4cccn4)cc3)n2)cc1OC returned NPYLR7 ag 17 and NPYLR7 ag max-min 5.
`FC(F)(F)C1CN(c2cc(-c3ccccc3)nc3ccccc23)CCO1` (stereo not given) gave NPYLR7 ag 2 and NPYLR7 ag max-min 0.
`CC1(c2cc3ccccc3o2)NC(=O)N(CN2CCc3ccccc3C2)C1=O` (stereo not given) gave NPYLR7 ag 0 and NPYLR7 ag max-min 0.
O=Cc1c(Cl)ncn1-c1ccc(F)cc1 was read as NPYLR7 ag 2 and NPYLR7 ag max-min 6.
`Cc1cc(Oc2ncccn2)ccc1NC(=O)NC1CC2CCC1(C)C2(C)C` (stereo not given) gave NPYLR7 ag 0 and NPYLR7 ag max-min -5.
Cc1cccc(COn2cccc(C(=O)Nc3ccccc3F)c2=O)c1 was read as NPYLR7 ag 13 and NPYLR7 ag max-min 13.
Screening CC(Oc1ccc(-n2cnc(-c3ccccc3)c2)cc1)C(N)=O (stereo not given) returned NPYLR7 ag 8 and NPYLR7 ag max-min 8.
Screening Cc1ccc(C(CC(=O)NCc2ccc(F)cc2)c2c[nH]c3ccccc23)cc1 (stereo not given) returned NPYLR7 ag 18 and NPYLR7 ag max-min 24.
Cc1ccc(S(=O)(=O)Oc2ccccn2)c(C)c1C was read as NPYLR7 ag 12 and NPYLR7 ag max-min 9.
`C=CCN(c1ccc(C(=O)NCCSC(C)(C)C)cc1)S(C)(=O)=O` gave NPYLR7 ag 3 and NPYLR7 ag max-min 2.
For C=CCn1c(C)cn2c3c(=O)n(CCCc4ccccc4)c(=O)n(C)c3nc12 the results were NPYLR7 ag 8 and NPYLR7 ag max-min 11.
Screening CS(=O)(=O)N1CCN(S(C)(=O)=O)C(OCc2ccccc2)C1OCc1ccccc1 (stereo not given) returned NPYLR7 ag -8 and NPYLR7 ag max-min -15.

7 entries drawn at random from the list so far:
Screening CC(Oc1ccc(-n2cnc(-c3ccccc3)c2)cc1)C(N)=O (stereo not given) returned NPYLR7 ag 8 and NPYLR7 ag max-min 8.
`Cc1cc(Oc2ncccn2)ccc1NC(=O)NC1CC2CCC1(C)C2(C)C` (stereo not given) gave NPYLR7 ag 0 and NPYLR7 ag max-min -5.
Screening Cc1ccc(C(CC(=O)NCc2ccc(F)cc2)c2c[nH]c3ccccc23)cc1 (stereo not given) returned NPYLR7 ag 18 and NPYLR7 ag max-min 24.
For COc1ccc(CNc2nnc(SCC(=O)N(C(C)C)C(C)C)s2)cc1 the results were NPYLR7 ag 10 and NPYLR7 ag max-min 11.
Screening COc1ccc(Cc2noc(CN(C)Cc3ccc(-n4cccn4)cc3)n2)cc1OC returned NPYLR7 ag 17 and NPYLR7 ag max-min 5.
For C=CCn1c(C)cn2c3c(=O)n(CCCc4ccccc4)c(=O)n(C)c3nc12 the results were NPYLR7 ag 8 and NPYLR7 ag max-min 11.
Screening CS(=O)(=O)N1CCN(S(C)(=O)=O)C(OCc2ccccc2)C1OCc1ccccc1 (stereo not given) returned NPYLR7 ag -8 and NPYLR7 ag max-min -15.

Other entries
Screening CCOC(=O)N1CCC(NCc2csc(-c3cnccn3)n2)CC1 returned NPYLR7 ag 4 and NPYLR7 ag max-min 2.
For COc1ccc(-c2csc(=Nc3ccccc3OC)n2NC(=O)CNc2ncc(C(F)(F)F)cc2Cl)cc1 the results were NPYLR7 ag -8 and NPYLR7 ag max-min -13.
For CC1CCC2(CC1)NC(=O)N(CN(Cc1ccccc1)C(C)C)C2=O (stereo not given) the results were NPYLR7 ag 8 and NPYLR7 ag max-min 7.
For O=C(CC1SC(=Nc2ccccc2)N(c2ccccc2)C1=O)Nc1ccccc1C(F)(F)F (stereo not given) the results were NPYLR7 ag -5 and NPYLR7 ag max-min 5.
c1ccc(NC2CCCN(Cc3cccn3-c3ncccn3)C2)cc1 (stereo not given) was read as NPYLR7 ag -2 and NPYLR7 ag max-min -3.
For CCc1nc2ccc(C(=O)NCc3ccc(N(C)C)cc3)cn2c1N(C=O)CC the results were NPYLR7 ag -8 and NPYLR7 ag max-min -11.
For CCOC(=O)N1CCC(NC(=O)Cn2nc(C(F)(F)F)cc2C)CC1 the results were NPYLR7 ag -4 and NPYLR7 ag max-min -8.
CCCNC(=O)Cn1nc2c(c1NC(=O)CSc1ccncc1)CSC2 was read as NPYLR7 ag -6 and NPYLR7 ag max-min -8.
`Cc1ccc(Cc2nsc(Nc3ccc(C)cc3)n2)cc1` gave NPYLR7 ag 29 and NPYLR7 ag max-min 28.
`CCCc1cc(CN(C)C(=O)c2ccc(=O)n(C)c2)[nH]n1` gave NPYLR7 ag 8 and NPYLR7 ag max-min 4.
C=CCNC(=O)C(NC(=O)c1ccc(F)cc1)C1CCN(C(=O)c2cccs2)CC1 (stereo not given) was read as NPYLR7 ag -1 and NPYLR7 ag max-min 4.
Screening CC(SC(c1ccccc1)c1ccccc1)C(=O)NC(C)(C)C (stereo not given) returned NPYLR7 ag 2 and NPYLR7 ag max-min 1.
CCOc1cccc(C2CC(=O)Nc3cc(OC)c(OC)cc32)c1 (stereo not given) was read as NPYLR7 ag 3 and NPYLR7 ag max-min 3.
Screening O=C(Oc1ccc(-c2nccs2)cc1)C1CC2CCC1C2 (stereo not given) returned NPYLR7 ag 1 and NPYLR7 ag max-min 14.
Screening O=C(Nc1ccc(F)c(F)c1)c1ccc(C2SCCS2)cc1 returned NPYLR7 ag 1 and NPYLR7 ag max-min 1.
`CN(C)c1ccc(/C=N\N2C(=O)C3C4C=CC(CC4)C3C2=O)cc1` (stereo not given) gave NPYLR7 ag 11 and NPYLR7 ag max-min 3.
Screening N#Cc1cc(NCC(=O)N2CCN(S(=O)(=O)c3ccc4c(c3)CCC4)CC2)ccc1Cl returned NPYLR7 ag 4 and NPYLR7 ag max-min 2.
Screening COC(=O)N(C)c1ccc(NC(=O)c2nc(Cl)c(Cl)c(Cl)c2Cl)cc1 returned NPYLR7 ag 5 and NPYLR7 ag max-min -11.
Screening Cc1cccnc1C(c1ccccc1)N(C)C(=O)C1CCN(S(=O)(=O)c2ccccc2)CC1 (stereo not given) returned NPYLR7 ag 6 and NPYLR7 ag max-min -6.
`C[C@H](NC(=O)c1ccc(-n2nc(-c3cccc(Cl)c3)cc2N)cc1)[C@H](O)c1ccccc1` gave NPYLR7 ag -4 and NPYLR7 ag max-min -7.
For COc1ccc(C(=O)NC2CCN(C3CC3)CC2)cc1S(=O)(=O)N1CCCC1 the results were NPYLR7 ag -1 and NPYLR7 ag max-min 30.
For Fc1ccc(Cl)cc1Nc1ncnc2sc3c(c12)CCC3 the results were NPYLR7 ag -4 and NPYLR7 ag max-min -5.
For CCOc1ccc(CNC(=O)C2CN(CC)CCO2)cc1C (stereo not given) the results were NPYLR7 ag 3 and NPYLR7 ag max-min 3.
For NC(=O)c1ccc(Oc2ccc(-c3ccccc3)cc2)nc1 the results were NPYLR7 ag 2 and NPYLR7 ag max-min -1.
Screening COc1ccc(C(CCN(C)C(=O)c2cnc3cc(C)nn3c2C)Oc2cccc3ccccc23)cc1 (stereo not given) returned NPYLR7 ag 1 and NPYLR7 ag max-min 1.
For CN(C)C(=O)c1ccc(-c2ccc(Cn3ccnc3)cc2)cc1 the results were NPYLR7 ag -4 and NPYLR7 ag max-min -5.
For COc1cc(Oc2ncccc2C(N)=O)ccc1CN1CCCC1 the results were NPYLR7 ag 3 and NPYLR7 ag max-min -2.
`CCOC(C)c1ccc(-c2ccc3cc[nH]c(=O)c3c2)cc1` (stereo not given) gave NPYLR7 ag -2 and NPYLR7 ag max-min -4.
Screening O=C(CSc1nc2ccccc2s1)NNC(=O)NC1CCCCC1 returned NPYLR7 ag 9 and NPYLR7 ag max-min 5.
For CCN(C(=O)c1cc(-c2ccccc2)n[nH]1)C1CCS(=O)(=O)C1 (stereo not given) the results were NPYLR7 ag -1 and NPYLR7 ag max-min 3.
Screening Cc1ccccc1NC(=O)CSc1nc(=O)n(CCCN2CCOCC2)c2c1CCC2 returned NPYLR7 ag 0 and NPYLR7 ag max-min -6.
Screening COc1ccc(OC)c(C2CC(c3ccccc3F)=NN2C(=O)CN2CCC3(CC2)OCCO3)c1 (stereo not given) returned NPYLR7 ag 1 and NPYLR7 ag max-min 5.
